Bm FixLJ act: activators of Burkholderia fixLJ two-component system, primary screen, B. multivorans, GFP reporter | z-score (concentration not given with the values) | hit rate 0.3% among 29,000 | B. multivorans fixK-promoter GFP reporter, 18 h; hits give high values;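 active = replicate mean overnight rise in green fluorescent reporter signal, 3 or more SD over negative controls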;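 note: score is relative to vehicle wells of the plate; 300 nL library stock went into each well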
Starred values were filed as active, the others as inactive. An excerpt; the hit share may differ from the screen's.

SMILES	Bm FixLJ act
Cc1csc(CCCNC(=O)CCc2c(C)nc(=O)[nH]c2C)n1	-2.3
CCCN1CCN(S(=O)(=O)c2cccc(OC)c2)C2CS(=O)(=O)CC21 (stereo unspecified)	-1.2
Cc1ccc(-n2c(=O)c3c4c(sc3n(CC(=O)Nc3ccccc3C)c2=O)CCCCC4)cc1C	0.06
Cc1ccc(C(=O)c2oc3ccccc3c2NC(=O)COc2ccccc2C)cc1	-0.03
COc1ccccc1NC(=O)CN1C(=O)C(c2ccc(F)cc2)=NC1(C)C	-0.81
Cc1nn(-c2ccccc2)c2c1cc1c(=O)[nH]c(=O)nc-1n2-c1cccc(C(F)(F)F)c1	-0.57
CCc1ccccc1OCC(=O)Nc1ccc(S(=O)(=O)Nc2nc(C)cc(C)n2)cc1	-2.4
COCCCN1C(=O)c2ccccc2CC1(C)C(=O)NC1CCCCC1 (stereo unspecified)	0.17
CCn1c(CN(C)C)nnc1C1CCN(C(=O)c2cc(C)nn2C)CC1	-0.06
COc1cccc(C(=O)N2CC3c4ccccc4OC[C@]3(C(=O)O)C2)c1OC (stereo partly specified)	-2
CS(=O)(=O)c1ccc(N2CCN(C(=O)CC3COCCN3)CC2)c(F)c1 (stereo unspecified)	-1
CCCc1cc(C(=O)NCc2cc(-c3ccc(OC)cc3)no2)n(C)n1	-6.5
Cc1cc(C)nc(CCNC(=O)N(Cc2ccncc2)CC2CCC(=O)N2)n1 (stereo unspecified)	0.83
CCn1ccc(C(=O)Nc2cc(C)ccc2NC(=O)CN(C)C)n1	0.93
Cc1ccc(C)c(NC(=O)C(NS(=O)(=O)c2ccc3c(c2)CCC(=O)N3)c2ccccc2)c1 (stereo unspecified)	0.11
O=C(CSc1c2c(nc3cc(Cl)ccc13)CCCC2)N1CCN(c2ccccc2)CC1	-0.69
CCOc1ccc(C(=O)N2CC(=O)Nc3ccc(F)cc3C2c2ccc(F)cc2)cc1 (stereo unspecified)	1.9
CCOC(=O)c1ccc(NC(=O)C2CC(=O)NC(=Nc3ccc(C)c(C)c3)S2)cc1 (stereo unspecified)	0.46
CN1CCN(C(=O)c2ccc3c(c2)N(Cc2ccc(Cl)cc2)C(=O)c2ccccc2S3(=O)=O)CC1	-2
Cc1csc(C(C)CNC(=O)N2CCC(Oc3ncccn3)CC2)n1 (stereo unspecified)	-1.6
CCc1cc(C(=O)N2CCC(c3ccc4ccccc4c3)C(O)C2)n[nH]1 (stereo unspecified)	-1.6
O=c1c2cnn(-c3ccc(Cl)cc3)c2ncn1Cc1ccc(Cl)cc1Cl	-1
CCN1CCN(c2cc(C)c3cc(NC(=O)/C=C/c4cccc(Cl)c4)ccc3n2)CC1	-3.5
CCc1cccc(NC(=O)C2CCC(CNS(=O)(=O)c3ccc(Br)s3)CC2)c1 (stereo unspecified)	1.1
Cc1ccc(OCC(=O)Nc2ccc3c(c2)sc(=O)n3C)cc1	-1.6
CCn1c(CC2C(=O)N(C)c3ccc(Br)cc32)nc2ccccc2c1=O (stereo unspecified)	-1.3
COCC1C(NC(=O)c2cc(-c3ccccc3F)n[nH]2)C2CCOC21 (stereo unspecified)	1.1
Cc1ccc(-c2nc3ccccn3c2Nc2c(C)cccc2C)o1	-2.6
CCN(CC)S(=O)(=O)c1ccc2oc(C(=O)NCc3ccccc3OC)c(C)c2c1	1.7
CC(C)CSc1ccccc1NC(=O)c1sc2nc(-c3ccncc3)ccc2c1N	-2.7
COc1cc(C2c3c(oc4ccc(C)cc4c3=O)C(=O)N2Cc2ccccc2)ccc1O (stereo unspecified)	-1
O=c1c2cccnc2n(Cc2cccc(F)c2)c(=O)n1Cc1ccccc1Cl	-0.82
Cc1ccc(F)cc1C(=O)NCC1CCN(c2ncccc2C(=O)O)CC1	1.2
Cn1cnc2cc(C(=O)N3CC(CO)C(CN4CCCCC4)C3)ccc21 (stereo unspecified)	-1.5
Nc1nc(C(=O)NC2CCCCC2c2ccccc2)cs1 (stereo unspecified)	0.18
Cc1ccn2c(F)c(C(=O)N(C)Cc3nc(C)no3)nc2c1	-2
CCn1c(=O)cc(OCC(=O)Nc2cc(Cl)c(OC)cc2OC)c2ccccc21	-0.57
Cc1c(Cl)cccc1NC(=O)c1ccc2snnc2c1	-1.2
COc1ccc(-c2noc(CN(C(=O)COc3cc(C)c(Br)c(C)c3)C(C)C)n2)cc1	2.1
COc1cc(OC)cc(-c2nc3nc(C)c(CCC(=O)Nc4ccc(F)cc4F)c(C)n3n2)c1	0.42
O=C(Cn1cc(S(=O)(=O)c2ccccc2)c(=O)c2cc3c(cc21)OCO3)Nc1ccccc1	1.1
O=C(Cn1c(=O)n(-c2ccccc2)c(=O)c2ccc(C(=O)NCc3ccc4c(c3)OCO4)cc21)Nc1ccc(Br)cc1	-0.02
O=C(c1ccc2c(c1)N(Cc1ccccc1F)C(=O)c1ccccc1S2(=O)=O)N1CCCC1	-0.01
COc1cccc(NC(=O)Nc2cccc(-c3cn4cccnc4n3)c2)c1	-0.96
Cc1ccc(C)c(OCCn2cc(C(=O)c3ccco3)c3ccccc32)c1	1.6
Cc1ccc(O)c(C(CCN(C(C)C)C(C)C)c2ccccc2)c1 (stereo unspecified)	-1.9
CCOc1ccc(NC(=O)NC2CS(=O)(=O)CC2O)cc1-n1cccc1 (stereo unspecified)	-0.35
O=C(Nc1ccccc1)OCC(CN1CCCCC1)OC(=O)Nc1ccccc1 (stereo unspecified)	-1.9
CCc1ccccc1C(=O)N1CCCC(c2nccn2Cc2cscn2)C1 (stereo unspecified)	-2.2
COc1cc2c(cc1OC)C1(CCN(C(=O)CN(C)C(N)=O)CC1)OCC2	0.39
CCC[C@]1(C(=O)O)CCN(C(=O)c2c(CC)noc2C)CC1O (stereo partly specified)	-1.9
CN1CC2(CCCN(c3nc(N)c4cnn(C)c4n3)C2)CCC1=O (stereo unspecified)	0.38
COc1cccc(-c2ccnc3c(-c4ccc(F)cc4)c(C)nn23)c1	0.3
Cc1ccc(CNC(=O)CN(c2cc(C)cc(C)c2)S(=O)(=O)c2c(C)noc2C)cc1	0.84
CCC(C(=O)N1CCN(Cc2cccc(F)c2)C(=O)C1)N1CCOCC1 (stereo unspecified)	-0.33
O=C(CSc1oc(-c2ccco2)nc1S(=O)(=O)c1ccc(Br)cc1)c1ccc(Cl)cc1	-2.2
COc1ccc(-c2[nH]ncc2C(=O)NCc2cccc(Cl)c2)cc1	-1.7
COc1ccc(CC(=O)N2CC(=O)Nc3ccc(Br)cc3C2c2ccc(F)cc2)cc1OC (stereo unspecified)	1.6
CCCNC(=O)C1CCN(c2cc(C)nc3c(-c4ccc(OC)c(OC)c4)c(C)nn23)CC1	-1.4
Cc1cccc(-c2nc(C(N)=O)c3c(n2)n(-c2ccc4c(c2)OCO4)c(=O)n3C)c1	-0.95
Going on with the list.
SMILES	Bm FixLJ act
O=c1c2ccccc2nc(-c2ccc(Cl)cc2)n1CCCOc1ccccc1F	-0.21
COc1cc(-c2noc(CCC(=O)Nc3cc(C)ccc3C)n2)cc(OC)c1OC	-0.22
COC1CCCN(S(=O)(=O)c2cccc(C(=O)NCC3CC3)c2)C1 (stereo unspecified)	0.16
Cc1cccc(CCNC(=O)CCc2c(C)nc3ncnn3c2C)c1	-0.59
COc1ccc(S(=O)(=O)NCc2nc(-c3ccccc3)no2)cc1	-0.7
CN(C)C1=NC2(CCN(C(=O)Cc3noc4ccccc34)CC2)C(=O)N1	-2.5
COc1ccc(C(CNC(=O)COc2cc(C)cc(C)c2)N2CCCCC2)cc1 (stereo unspecified)	-1
Cc1cc(-c2ccc(C(=O)NCCCOC3CCN(C)CC3)cc2)ccn1	0.94
CCN1CCN(C(=O)N[C@@H](C(=O)N[C@@H]2C(=O)N3C(C(=O)O)=C(CSc4nnnn4C)CS[C@H]23)c2ccc(O)cc2)C(=O)C1=O	-6
Cc1cc(NC(=O)CCNS(=O)(=O)c2cccc3nsnc23)ccc1Br	0.57
N#C/C(=C/c1cn(Cc2ccc(F)cc2)c2ccccc12)C(=O)Nc1cccc(Cl)c1	0.54
Cc1cc(C(=O)NCCCOC2CCN(C)CC2)nc(C)n1	-0.27
CCN(C(=O)c1ccc2c(=O)n3c(nc2c1)CCCCC3)c1cc(C)ccc1C	0.24
Cc1nc(N(C)C)ncc1C(=O)N1CCN(C(=O)c2ccc[nH]2)CC1	-0.18
O=C(CSc1nc2c(oc3ccccc32)c(=O)n1-c1ccccc1F)Nc1ccccc1	0.82
CCN(CC)c1cc(C)c2cc(NC(=O)c3cccc(OC)c3OC)ccc2n1	1.8
COc1ccc(S(=O)(=O)n2ccnc2)cc1C(C)(C)C	-0.94
Cc1ncccc1C(=O)NC1CCOCC1Oc1ccc(C(=O)O)cc1 (stereo unspecified)	-0.73
CCn1cc(C(=O)N2CCN(c3cccc(C(F)(F)F)c3)CC2)c2cc(OC)c(OC)cc2c1=O	0.09
CCOC(=O)c1c(Nc2cc(C)cc(C)c2)nnc(-c2ccccc2)c1-c1ccccc1	-0.47

Compounds listed so far containing bromine, in the order listed:
SMILES	Bm FixLJ act
CCc1cccc(NC(=O)C2CCC(CNS(=O)(=O)c3ccc(Br)s3)CC2)c1 (stereo unspecified)	1.1
CCn1c(CC2C(=O)N(C)c3ccc(Br)cc32)nc2ccccc2c1=O (stereo unspecified)	-1.3
COc1ccc(-c2noc(CN(C(=O)COc3cc(C)c(Br)c(C)c3)C(C)C)n2)cc1	2.1
O=C(Cn1c(=O)n(-c2ccccc2)c(=O)c2ccc(C(=O)NCc3ccc4c(c3)OCO4)cc21)Nc1ccc(Br)cc1	-0.02
O=C(CSc1oc(-c2ccco2)nc1S(=O)(=O)c1ccc(Br)cc1)c1ccc(Cl)cc1	-2.2
COc1ccc(CC(=O)N2CC(=O)Nc3ccc(Br)cc3C2c2ccc(F)cc2)cc1OC (stereo unspecified)	1.6
Cc1cc(NC(=O)CCNS(=O)(=O)c2cccc3nsnc23)ccc1Br	0.57

Additional records:
SMILES	Bm FixLJ act
CC(=O)N1CCc2c(sc3c2c(=O)n(-c2ccccc2C)c(=O)n3Cc2cccc(F)c2)C1	-2.1
O=C(CCNS(=O)(=O)c1cccc2nsnc12)Nc1ccc(F)cc1	-0.62
O=C(CC1(O)C(=O)N(Cc2ccccc2)c2ccc(Br)cc21)c1ccccc1 (stereo unspecified)	-0.45
COc1ccc2c(c1)c(=O)c(S(=O)(=O)c1ccc(Cl)cc1)cn2C	-1
COc1ccc(Cn2cc(-c3nc(C(=O)O)ccc3OC)cn2)cc1	1.1
CC(C)N1CCCC2(CCN(C(=O)c3cc4c([nH]c3=O)CCCC4)C2)C1=O (stereo unspecified)	-0.14
Cc1nsnc1C(=O)N1CCC(OCc2cccnc2)CC1	-1.9
COc1nnc(-c2ccc(N3CCCCC3)c(NC(=O)c3ccc(C)cc3)c2)c2ccccc12	-0.74
COc1ccc(N(CC(=O)N2CCN(c3ccccc3F)CC2)S(=O)(=O)c2c(C)n[nH]c2C)cc1	-1.2
CC1=C(C(=O)Nc2ccccc2)C(c2ccccn2)n2nc(SCc3ccccc3Cl)nc2N1 (stereo unspecified)	-0.91
CCCOC(=O)c1ccc(Nc2c(C(=O)OCC)cnc3c(C)cc(Cl)cc23)cc1	0.47
COC1CCC[C@@]12CCCN(S(=O)(=O)c1cc(C(=O)O)ccc1C)C2 (stereo partly specified)	2.1
CCCn1c2ccc(C)cc2c2nnc(SCCN3CCCCC3)nc21	-0.78
COc1ccc(Cn2c(=O)[nH]c3cc(C(=O)N4CCN(c5cc(Cl)ccc5C)CC4)ccc3c2=O)cc1	0.29
CCOc1ccc(CN(CCc2ccc3c(c2)OCO3)Cc2cc(OC)c(OC)cc2OC)cc1	1.1
COc1ccccc1CNC(=O)C(NS(=O)(=O)c1ccc2c(c1)CCN2C(C)=O)C(C)C (stereo unspecified)	-0.3
COc1ccc(NC(=O)C2CCC(CNS(=O)(=O)c3cccs3)CC2)cc1OC (stereo unspecified)	1.3
CC(C)c1cccc(C(C)C)c1NS(=O)(=O)c1cccs1	0.11
CCOC(=O)c1ccc(NC(=O)CCn2c(=O)oc3ccccc32)cc1	0.25
CCc1cccc(OC2CN(C(=O)CCc3c(C)n[nH]c3C)C2)c1	-1.8

Looked up above.
Bm FixLJ act result of COc1ccc(Cn2cc(-c3nc(C(=O)O)ccc3OC)cn2)cc1 → 1.1
Bm FixLJ act result of CC1=C(C(=O)Nc2ccccc2)C(c2ccccn2)n2nc(SCc3ccccc3Cl)nc2N1 (stereo unspecified) → -0.91
Bm FixLJ act result of CC(C)c1cccc(C(C)C)c1NS(=O)(=O)c1cccs1 → 0.11
Bm FixLJ act result of CC(C)N1CCCC2(CCN(C(=O)c3cc4c([nH]c3=O)CCCC4)C2)C1=O (stereo unspecified) → -0.14
Bm FixLJ act result of COC1CCC[C@@]12CCCN(S(=O)(=O)c1cc(C(=O)O)ccc1C)C2 (stereo partly specified) → 2.1
Bm FixLJ act result of Cc1nsnc1C(=O)N1CCC(OCc2cccnc2)CC1 → -1.9

In another format: 2 of the compounds above
COC1CCCN(S(=O)(=O)c2cccc(C(=O)NCC3CC3)c2)C1 (stereo unspecified)
  Bm FixLJ act: 0.16
Cc1cccc(CCNC(=O)CCc2c(C)nc3ncnn3c2C)c1
  Bm FixLJ act: -0.59

Next part:
SMILES	Bm FixLJ act
COCc1cc(C)nc2sc3c(c12)NC(c1ccccc1C(=O)O)N(c1ccc(OC)cc1)C3=O (stereo unspecified)	-0.74
COC(=O)CC1Oc2ccc(F)cc2-n2cc(-c3ccc(C)cc3)nc21 (stereo unspecified)	-0.07
CCN(CC)S(=O)(=O)c1ccc2c(c1)N(CC(=O)Nc1c(C)cc(C)cc1C)C(=O)CS2	-3.2
Cc1ccc(Cl)cc1N1CCN(C(=O)c2ccc3c(c2)N(Cc2ccccc2F)C(=O)c2ccccc2S3=O)CC1 (stereo unspecified)	0.2
O=C(NCC(F)(F)F)c1ccc(-c2cc(NCCO)ncn2)cc1	-4.5
CCn1cc(C(=O)NCc2ccccc2)c(=O)c2cc(S(=O)(=O)N3CCCCCC3)ccc21	-0.73
COc1cccc(OCCn2c(-c3ccc(Cl)cc3)nc3ccccc3c2=O)c1	-0.96
Cc1cccc(C(=O)N(Cc2ccccc2F)C2CCS(=O)(=O)C2)c1 (stereo unspecified)	-0.74
COc1ccc(C(NC(=O)c2c(F)cccc2F)C2CC(O)C2)cn1 (stereo unspecified)	-1.4
O=C(c1cnc(-c2cccnc2)nc1)N1CCC2OCc3cnnn3C2C1 (stereo unspecified)	-0.61
COc1ccc(OCC(=O)N2CCN(Cc3ccc(SC)cc3)CC2)cc1	-0.79
